Compound activity (PubChem)
Beta apoptosis: inhibitors of cytokine-induced beta cell apoptosis, primary screen, luminescence; protection from apoptosis, % (test concentration not listed); actives 0.8% (n = 300,000); INS-1E cytokine-induced death, ATP luminescence, 48 h; percent of positive-control rescue, neutral wells zero;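 active = all replicates at 75% or more, or half of them and the mean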;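 note: 0% = cytokine-treated negative control wells and 100% = positive control rescue; higher means more ATP so stronger rescue from cytokine killing; wells of about 40 µL received 100 nL stock; the first replicate is given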
B2AR ag: beta2AR agonists driving receptor internalization, primary screen, cell-based, FAP fluorogen, flow cytometry | Beta-2 adrenergic receptor (Homo sapiens), P07550 | Am2.2-beta2AR cells; reference of the scale not given here | response, % (test concentration not listed) | actives 0.43% (n = 340,000) | AID 504454, 2011;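 active = response above a set limit, near 3 SD of response in nonfluorescent compounds, cut at about 42% in these data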;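 note: stock transfer was 100 nL into about 11 µL; a reference agonist was the positive control; negative values mostly stem from fluorescent compounds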
T cruzi inh: inhibitors of intracellular T. cruzi growth, primary screen, luminescence, NIH3T3 host cells. inhibition, % (no concentration beside the values). AID 1885, 2009. T. cruzi beta-gal in NIH3T3, 90 h. actives 1.4% (n = 300,000);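 active = mean inhibition across valid replicates above about 55%, limit read from the data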;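 note: signal also drops with host cell toxicity which is not excluded here; 0% = plate median of DMSO wells and 100% = zero luminescence signal; higher percent means less beta-gal luminescence so fewer parasites; stock transfer was 50 nL into about 50 µL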
ALR inh: inhibitors of human ALR sulfhydryl oxidase, primary screen, biochemical, H2O2 detection, HRP-luminol luminescence, single point. purified ALR, DTT oxidation. inhibition, % (no concentration beside the values). AID 485317, 2010. actives 3.8% (n = 290,000). FAD-linked sulfhydryl oxidase ALR (Homo sapiens), P55789;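 active = mean and each replicate at 75% or more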;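 note: stock transfer was 7.5 nL into about 7.5 µL; 0% = neutral wells and 100% = wells with inactivated enzyme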
A1 inh: caspase 3/7 activation in MEF A1-2A-BIM cells, primary screen, A1 inhibitor project, cell-based, luminescence, HTS. caspase activation, % (test concentration not listed). actives 0.066% (n = 330,000). Caspase-Glo 3/7 luminescence, 3 h; percent of clofoctol response, vehicle zero;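 active = over half of replicate activation scores above 10%, or exactly half above 10 with the replicate mean above 10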;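 note: wells of about 30 µL received 50 nL stock; many hits fall short of the cut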
Calb FLC: C. albicans growth inhibition with fluconazole, primary screen, CaCi-2 strain, Alamar Blue fluorescence; AID 1979, 2009; actives 0.57% (n = 300,000); C. albicans CaCi-2 (fluconazole-resistant clinical isolate) + fluconazole, 48 h; growth inhibition, % (no concentration beside the values);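 active = most replicates above 75%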;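 note: all wells also contain fluconazole at 8 µg/ml as a sub-toxic cotreatment; 0% = median of DMSO wells and 100% = median of geldanamycin control wells; wells of about 8 µL received 7.5 nL stock; the first replicate is given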
rRNA inh HTS: reduced GFP signal of wild-type E. coli, primary screen, bacterial rRNA inhibitor project, GFP/RFP fluorescence, OD600, single point; E. coli WT GFP vs humanized-ribosome RFP mutants, 24 h; stronger effect = lower value; DMSO median 0, no signal -100; GFP signal change (wild-type ribosome), % (no concentration beside the values); actives 1.6% (n = 350,000);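 active = significant combined selectivity score with lowered wild-type GFP, culture density cut under 30%, mutant RFP and density less affected; inactive = any of these conditions unmet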; note: one replicate is shown; some compounds called inactive have numbers as strong as hits
LANA-H2A inh: blockers of LANA interaction with H2A/H2B – biochemical, FP readout, HTS, primary screen; cell-free LANA-H2A/H2B peptide, fluorescence polarization; AID 2629, 2010; Protein LANA1 (Human herpesvirus 8 type P (isolate GK18)), Q9QR71; actives 0.6% (n = 320,000); inhibition, % (test concentration not listed); in the data active = inhibition mostly above about 10%, no sharp cut-off; inactive = mostly below about 6.7%;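 note: stock transfer was 7.5 nL into about 10 µL; 0% = median of vehicle wells and 100% = median of positive control wells; one replicate is shown; the record names a cut of 25% in any replicate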
Target sequence (Q9QR71 whole entry, looked up): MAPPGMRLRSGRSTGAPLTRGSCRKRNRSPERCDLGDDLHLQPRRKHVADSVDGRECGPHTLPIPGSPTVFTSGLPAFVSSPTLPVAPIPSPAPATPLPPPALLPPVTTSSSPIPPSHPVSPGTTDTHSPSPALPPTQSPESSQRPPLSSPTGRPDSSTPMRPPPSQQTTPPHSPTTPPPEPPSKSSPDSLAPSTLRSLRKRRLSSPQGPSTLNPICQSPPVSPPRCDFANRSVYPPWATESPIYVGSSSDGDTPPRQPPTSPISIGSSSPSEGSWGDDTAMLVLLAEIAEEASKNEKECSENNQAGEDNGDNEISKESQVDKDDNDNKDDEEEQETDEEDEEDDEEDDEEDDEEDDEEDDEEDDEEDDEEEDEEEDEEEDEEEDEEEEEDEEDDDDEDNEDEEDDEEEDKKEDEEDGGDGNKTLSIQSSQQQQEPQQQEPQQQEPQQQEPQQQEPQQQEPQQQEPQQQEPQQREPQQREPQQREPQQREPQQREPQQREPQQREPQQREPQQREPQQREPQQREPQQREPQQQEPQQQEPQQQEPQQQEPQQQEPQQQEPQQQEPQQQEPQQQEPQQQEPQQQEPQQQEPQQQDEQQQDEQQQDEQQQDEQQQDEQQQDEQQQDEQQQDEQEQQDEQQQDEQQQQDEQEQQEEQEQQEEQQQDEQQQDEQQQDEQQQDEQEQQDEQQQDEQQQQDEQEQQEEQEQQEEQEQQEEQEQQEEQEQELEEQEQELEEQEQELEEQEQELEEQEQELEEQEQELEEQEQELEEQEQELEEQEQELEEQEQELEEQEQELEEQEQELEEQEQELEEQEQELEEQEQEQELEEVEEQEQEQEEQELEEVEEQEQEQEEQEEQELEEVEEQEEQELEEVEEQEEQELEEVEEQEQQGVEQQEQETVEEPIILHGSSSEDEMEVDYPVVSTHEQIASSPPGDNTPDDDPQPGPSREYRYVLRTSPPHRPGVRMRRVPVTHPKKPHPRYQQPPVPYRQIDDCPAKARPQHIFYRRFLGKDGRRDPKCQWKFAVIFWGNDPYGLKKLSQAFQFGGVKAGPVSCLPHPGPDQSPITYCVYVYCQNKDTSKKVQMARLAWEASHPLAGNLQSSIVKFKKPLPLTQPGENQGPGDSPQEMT
rRNA inh HTS OD600: recorded beside rRNA inh HTS, whose call it bears; OD600 change, %; measured here: OD600 growth;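 optical density of the mix in the first replicate; 0 = DMSO median and -100 = no signal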
rRNA inh HTS RFP: second read-out of rRNA inh HTS, no call of its own (marks repeat the call); RFP signal change, %; measured here: RFP humanized mutant strains;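 first replicate; 0 = DMSO median and -100 = no signal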
* = called active by the depositor.

How did COc1ccc(C(=O)NC(=S)N2CCCCC2)cc1[N+](=O)[O-] do in these assays?
Beta apoptosis: -6; B2AR ag: -3; T cruzi inh: 10; ALR inh: -2; A1 inh: -0.2; Calb FLC: -12; rRNA inh HTS: 6; LANA-H2A inh: -3.1; rRNA inh HTS OD600: -2; rRNA inh HTS RFP: -6.4

Results for COc1ccc(NC(=O)Cc2cccc3ccccc23)cc1 ?
Beta apoptosis: -4; B2AR ag: -2; T cruzi inh: 9; ALR inh: -6; A1 inh: -0.2; Calb FLC: -1; rRNA inh HTS: 6; LANA-H2A inh: 0.0; rRNA inh HTS OD600: 1; rRNA inh HTS RFP: 1.4

Results for N#Cc1ccccc1S(=O)(=O)N1CCN(C(=O)C2CCC2)CC1 ?
Beta apoptosis: 4; B2AR ag: 3; T cruzi inh: -15; ALR inh: -6; A1 inh: 1.9; Calb FLC: 6; rRNA inh HTS: 11; LANA-H2A inh: 5.8; rRNA inh HTS OD600: 3; rRNA inh HTS RFP: -0.7

What do the screens show for `O=S(=O)(Cc1ccccc1)NCc1ccccn1`?
Beta apoptosis: -6; B2AR ag: 1; ALR inh: -8; A1 inh: -0.3; Calb FLC: 12; rRNA inh HTS: -21; LANA-H2A inh: 4.2; rRNA inh HTS OD600: -33; rRNA inh HTS RFP: -22

Results for CSc1cccc(CN2CCC(n3nccc3NC(=O)C3CC3)CC2)c1 ?
B2AR ag: -8; T cruzi inh: 11; ALR inh: 44; Calb FLC: -5; rRNA inh HTS: 7; rRNA inh HTS OD600: 6; rRNA inh HTS RFP: -0.2

How did Cc1ccc2cc(C)c3nnc(SCC(=O)N4CCCc5ccccc54)n3c2c1C do in these assays?
Beta apoptosis: 12; T cruzi inh: 23; ALR inh: -8; A1 inh: -0.9; Calb FLC: -7; LANA-H2A inh: 0.3

How did O=C(CNCCc1ccc(Cl)cc1Cl)NCc1ccco1 do in these assays?
Beta apoptosis: -4; B2AR ag: -4; T cruzi inh: 50; ALR inh: 0; A1 inh: -0.1; Calb FLC: -3; rRNA inh HTS: -11; LANA-H2A inh: 0.9; rRNA inh HTS OD600: -6; rRNA inh HTS RFP: -2.9

How did CCOc1ccc(-c2nnn(CC#N)n2)cc1OC do in these assays?
Beta apoptosis: -9; B2AR ag: -5; T cruzi inh: -3; ALR inh: -1; A1 inh: 1.2; Calb FLC: -13; LANA-H2A inh: 3.1

Results for Cc1nc2nc(-c3ccc(Cl)cc3)cn2nc1C ?
B2AR ag: -12; T cruzi inh: 10; ALR inh: 1; A1 inh: -3.4; Calb FLC: 3; LANA-H2A inh: -5.6

Results for O=C(/C=C/c1ccco1)NCCc1ccc(F)cc1 ?
Beta apoptosis: -2; B2AR ag: -1; T cruzi inh: -17; A1 inh: 1.1; Calb FLC: -12; rRNA inh HTS: 0; LANA-H2A inh: -8.5; rRNA inh HTS OD600: 8; rRNA inh HTS RFP: -2.7

How did COCCN(C(=O)CSc1n[nH]c(-c2ccccc2)n1)c1c(N)n(Cc2ccccc2)c(=O)[nH]c1=O do in these assays?
Beta apoptosis: -3; B2AR ag: 16; T cruzi inh: -3; ALR inh: 1; A1 inh: -0.8; Calb FLC: 1; rRNA inh HTS: 8; LANA-H2A inh: 1.8; rRNA inh HTS OD600: 2; rRNA inh HTS RFP: 2.4

What do the screens show for `Cn1c(SCC(=O)NCCc2ccccc2)ncc(C(=O)Nc2ccc(F)cc2)c1=O`?
Beta apoptosis: 0; B2AR ag: -10; T cruzi inh: -13; ALR inh: 0; A1 inh: -8.2; Calb FLC: 2; rRNA inh HTS: 3; LANA-H2A inh: 0.5; rRNA inh HTS OD600: 5; rRNA inh HTS RFP: -2.5

How did O=c1c2ccccc2sc2ccc(NCCCN3CCOCC3)cc12 do in these assays?
B2AR ag: -99; T cruzi inh: 43; ALR inh: 55; A1 inh: -0.9; Calb FLC: -5; rRNA inh HTS: -2; LANA-H2A inh: 3.4; rRNA inh HTS OD600: -24; rRNA inh HTS RFP: -12

What do the screens show for `NS(=O)(=O)c1ccc(CCNC(=O)c2cccnc2)cc1`?
Beta apoptosis: -13; B2AR ag: 6; T cruzi inh: -13; ALR inh: -54; A1 inh: -0.3; Calb FLC: -1; rRNA inh HTS: 16; LANA-H2A inh: 0.5; rRNA inh HTS OD600: 11; rRNA inh HTS RFP: -6.4

How did Cc1ccc(NC(=O)COc2ccc(N3CC(C(N)=O)CC3=O)cc2)c(C)c1 (centres undefined) do in these assays?
Beta apoptosis: 0; B2AR ag: 9; T cruzi inh: 2; ALR inh: -4; A1 inh: 0.4; Calb FLC: -5; rRNA inh HTS: 1; LANA-H2A inh: -2.2; rRNA inh HTS OD600: -5; rRNA inh HTS RFP: 1.9

How did Cc1ccc(S(=O)(=O)C2(C(=O)N3CCCCCC3)CC2)cc1 do in these assays?
Beta apoptosis: 2; B2AR ag: 0; T cruzi inh: -22; ALR inh: -1; A1 inh: 1.0; Calb FLC: -23; LANA-H2A inh: 0.1

Results for COC(=O)c1ccc(Cl)c(NC(=O)CSc2ncn[nH]2)c1 ?
Beta apoptosis: -5; B2AR ag: -2; T cruzi inh: -7; ALR inh: 1; A1 inh: -0.2; Calb FLC: 4; LANA-H2A inh: 7.1

How did Cc1n[nH]c(C)c1NC(=O)c1cc([N+](=O)[O-])ccc1Cl do in these assays?
Beta apoptosis: -10; B2AR ag: 2; T cruzi inh: -2; ALR inh: -16; A1 inh: 0.1; Calb FLC: 6; rRNA inh HTS: 5; LANA-H2A inh: -7.1; rRNA inh HTS OD600: 10; rRNA inh HTS RFP: 0.3

How did O=C(c1ccc(S(=O)(=O)c2ccccc2)cc1)N1CCc2ccccc2C1 do in these assays?
B2AR ag: 7; T cruzi inh: 3; ALR inh: 2; A1 inh: -1.2; Calb FLC: -5; LANA-H2A inh: -4.8

How did Cc1cc(C)n2nc(C(=O)OCC(=O)c3ccccc3)nc2n1 do in these assays?
Beta apoptosis: 2; B2AR ag: -5; ALR inh: -3; A1 inh: -0.6; rRNA inh HTS: 16; LANA-H2A inh: -2.4; rRNA inh HTS OD600: 9; rRNA inh HTS RFP: 2.9

How did CC(=O)OC(C(=O)NC1CCCCC1)c1cccc(F)c1 (centres undefined) do in these assays?
Beta apoptosis: -5; B2AR ag: 2; T cruzi inh: -8; ALR inh: -7; A1 inh: 0.2; Calb FLC: -20; rRNA inh HTS: 10; LANA-H2A inh: -3.8; rRNA inh HTS OD600: 3; rRNA inh HTS RFP: 9.0

What do the screens show for `CCOC(=O)C1=C(C)NC(C)=C(C(=O)OCC)C1c1ccc(C)o1`?
Beta apoptosis: -22; B2AR ag: 2; T cruzi inh: 15; ALR inh: 2; A1 inh: -0.3; Calb FLC: -2; rRNA inh HTS: -7; LANA-H2A inh: -1.8; rRNA inh HTS OD600: 1; rRNA inh HTS RFP: 1.7

Results for O=C(NN1C(=O)/C(=C/c2cc([N+](=O)[O-])ccc2O)SC1=S)c1ccccc1O ?
Beta apoptosis: 7; T cruzi inh: -21; ALR inh: 81*; A1 inh: -0.9; Calb FLC: 1; LANA-H2A inh: -2.0

How did Cc1cc(C)c(S(=O)(=O)NCc2nc3nc(C)cc(C)n3n2)c(C)c1 do in these assays?
Beta apoptosis: 0; B2AR ag: 3; T cruzi inh: -11; ALR inh: -16; A1 inh: 0.9; Calb FLC: -3; rRNA inh HTS: 11; LANA-H2A inh: -2.5; rRNA inh HTS OD600: 11; rRNA inh HTS RFP: -0.1

Results for Cc1cccc2sc(NNC(=O)c3ccc(S(=O)(=O)N4CC(C)CC(C)C4)cc3)nc12 (centres undefined) ?
Beta apoptosis: 110*; B2AR ag: 48*; T cruzi inh: 66*; ALR inh: 0; A1 inh: -0.1; Calb FLC: -4; rRNA inh HTS: -11; LANA-H2A inh: -0.8; rRNA inh HTS OD600: -13; rRNA inh HTS RFP: -2.8

How did C=CCSC1=Nc2sccc2C2=NC(=O)CN12 do in these assays?
Beta apoptosis: 6; B2AR ag: -4; T cruzi inh: 6; A1 inh: 0.1; Calb FLC: 18; LANA-H2A inh: -1.1

What do the screens show for `CCCn1c(=O)c(C(=O)NNC(=O)c2ccccc2[N+](=O)[O-])c(O)c2ccccc21`?
B2AR ag: 10; T cruzi inh: -2; ALR inh: 4; A1 inh: 0.0; Calb FLC: -6; rRNA inh HTS: 20; LANA-H2A inh: -1.5; rRNA inh HTS OD600: 11; rRNA inh HTS RFP: -0.9

How did Cc1c(Cl)c([N+](=O)[O-])nn1Cc1ccc(C(=O)N/N=C\c2cc(Cl)ccc2O)o1 do in these assays?
Beta apoptosis: 90*; B2AR ag: 13; T cruzi inh: 49; ALR inh: -2; A1 inh: -0.4; Calb FLC: 112*; LANA-H2A inh: -0.4

How did Cc1ccccc1NC(=S)N1CCCN(Cc2ccc(F)cc2)C1 do in these assays?
Beta apoptosis: -3; B2AR ag: 4; T cruzi inh: 22; ALR inh: -4; A1 inh: 0.0; Calb FLC: -1; rRNA inh HTS: -4; LANA-H2A inh: 6.2; rRNA inh HTS OD600: 3; rRNA inh HTS RFP: 0.9

Results for CCCCn1c(N)c(N(CCOC)C(=O)c2c(-c3ccccc3)noc2C)c(=O)[nH]c1=O ?
Beta apoptosis: -4; B2AR ag: -4; T cruzi inh: -1; ALR inh: -10; A1 inh: 0.0; Calb FLC: 2; rRNA inh HTS: 12; LANA-H2A inh: 4.7; rRNA inh HTS OD600: 7; rRNA inh HTS RFP: 4.9

How did Cc1ccc(S(=O)(=O)N(C)C)cc1NC(=O)COC(=O)CNC(=O)C12CC3CC(CC(C3)C1)C2 do in these assays?
Beta apoptosis: 2; B2AR ag: 1; T cruzi inh: -7; ALR inh: -3; A1 inh: -0.5; Calb FLC: 6; rRNA inh HTS: -4; LANA-H2A inh: -3.5; rRNA inh HTS OD600: -6; rRNA inh HTS RFP: 0.4

How did COc1ccc(/C=C2\SC(=S)N(CCCC(=O)NNC(=O)c3ccccc3O)C2=O)cc1 do in these assays?
Beta apoptosis: -8; B2AR ag: 1; T cruzi inh: 9; ALR inh: -15; A1 inh: -0.7; Calb FLC: -20; rRNA inh HTS: 7; LANA-H2A inh: 3.6; rRNA inh HTS OD600: -1; rRNA inh HTS RFP: 0.7

Not all compounds are listed. The share of hits here may be higher or lower than overall.
